Cruzain inh Det: qHTS Assay for Promiscuous and Specific Inhibitors of Cruzain (with detergent); purified cruzain, Z-FR-AMC fluorescence, 0.01% Triton; Potency, µM, for inactives: max response, negative = inhibition, hits mostly inhibitors; actives 0.43% (n = 200,000);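 note: plate controls were neutral wells for no effect and buffer without enzyme for full effect; nearly all actives have a fitted effect of over 40% in size; top concentration of the series not given in the record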
Target sequence (P25779 123-467 limits assumed): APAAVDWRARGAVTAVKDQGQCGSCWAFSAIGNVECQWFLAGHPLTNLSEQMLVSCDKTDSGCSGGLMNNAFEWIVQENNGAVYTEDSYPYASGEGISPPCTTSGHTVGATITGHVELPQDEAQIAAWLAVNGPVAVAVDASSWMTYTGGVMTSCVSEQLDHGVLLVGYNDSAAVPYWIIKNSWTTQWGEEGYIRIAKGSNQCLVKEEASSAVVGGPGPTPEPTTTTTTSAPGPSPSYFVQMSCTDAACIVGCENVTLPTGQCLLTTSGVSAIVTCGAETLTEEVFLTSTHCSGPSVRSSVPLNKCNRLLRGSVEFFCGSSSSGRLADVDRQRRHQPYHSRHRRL
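Z-FR-AMC hydrolysis (2 uM substrate) by cruzain (1.5 nM) monitored kinetically at ex 360/em 450 nm after 15 min room-temperature compound exposure; 0.01% Triton X-100, pH 5.5, 5 mM DTT.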
StopGo reporter: High Throughput Screening for Foot and Mouth Disease Virus Antivirals. AID 1159524, 2015. Potency, µM (highest dose often 57.9 µM), for inactives: at the top dose signal change, negative = less light. human cells with a luciferase reporter of 2A StopGo recoding; control for the full effect not named in the record. actives 1.2% (n = 410,000); active = well fitted falling curve with a large enough effect; inconclusive = small, poorly fitted or top-dose-only effect; inactive = no such curve, though single readings can be large or run the other way; tested in HEK293T cells; note: % is set by controls: 0 for no effect and ±100 for the full control effect; nearly all actives have a fitted effect of over 45% in size; luciferase light after 4 h
Marburg entry inh: qHTS for inhibitors of binding or entry into cells for Marburg Virus; Marburg virus pseudotyped entry inhibition, cell reporter; control for the full effect not named in the record; about a third of the inactives were read at about 46 µM; Potency, µM (highest dose often 37.8 µM), for inactives: at the top dose activity change, negative = inhibition, actives largely listed as inhibitors; actives 1.8% (n = 300,000); AID 540276, 2011; active = well fitted inhibition curve with a large enough effect; inconclusive = small, poorly fitted or top-dose-only effect, or effect the other way; inactive = flat fitted curve, though single readings scatter; tested in HEK293 cells; about a fifth of its hits are not listed in these tables; note: % is set by controls: 0 for no effect and ±100 for the full control effect; luciferase read-out
NS1 inh: qHTS Assay for Inhibitors of Influenza NS1 Protein Function; AID 2326, 2010; actives 0.4% (n = 270,000); Potency, µM (doses to about 46.1 µM), for the others: at the top dose activity, positive = more growth; S. cerevisiae slowed by influenza A NS1, growth recovery by OD600; active means well fitted rising curve with a large enough effect; inconclusive means small, poorly fitted or top-dose-only effect; inactive means no such curve, though single readings can be large or run the other way; note: nearly all actives have a fitted effect of over 50% in size
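Compounds were scored for reversing the slow growth caused by influenza A NS1 in S. cerevisiae, measured by optical density at 600 nm. Assay medium contained 2% galactose at pH 6.0; NS1-free yeast of the same strain were the positive control.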
RE007 growth inh: qHTS Assay for Inhibitors of the HIV-1 protein Vpr; actives 0.21% (n = 360,000); Potency, µM (doses to about 92.2 µM), for inactives: top-dose activity change, negative = less growth; S. pombe RE007 Vpr strain, BacTiter-Glo ATP luminescence, 24 h; control for the full effect not named in the record; active = well fitted falling curve with a large enough effect; inconclusive = small, poorly fitted or top-dose-only effect; inactive = no such curve, though single readings can be large or run the other way;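 note: % is set by controls: 0 for no effect and ±100 for the full control effect; nearly all actives have a fitted effect of over 50% in size; the assay follows cell death caused by Vpr and the record does not say whether a fall means rescue or toxicity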
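Fission yeast RE007 carrying one integrated HIV-1 vpr copy, seeded at OD 0.01 in PMG+AL medium with 23 nL pinned compound. Grown 24 h at 30 degrees; viability read by BacTiter-Glo luminescence after 5 min.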
SARS PLpro yeast: qHTS of Yeast-based Assay for SARS-CoV PLP | actives 0.19% (n = 330,000) | Potency, µM (highest dose often 32.9 µM), inactives show at the highest dose activity, positive = growth rescue | S. cerevisiae expressing SARS-CoV PLpro, growth rescue; control for the full effect not named in the record; active means well fitted rising curve with a large enough effect; inconclusive means small, poorly fitted or top-dose-only effect; inactive means no such curve, though single readings can be large or run the other way; note: 0% is about no effect; nearly all actives have a fitted effect of over 55% in size; growth read by luminescence after 48 h
LASV entry inh: qHTS for Inhibitors of binding or entry into cells for Lassa Virus; Lassa virus pseudotype entry inhibition, cell reporter; control for the full effect not named in the record; Potency, µM (top dose mostly 37.9 µM), without a hit: at the top dose activity change, negative = inhibition, most hits filed as inhibitors; actives 1.2% (n = 300,000); AID 540256, 2011; active means well fitted inhibition curve with a large enough effect; inconclusive means small, poorly fitted or top-dose-only effect, or effect the other way; inactive means flat fitted curve, though single readings scatter; tested in HEK293 cells; note: % is set by controls: 0 for no effect and ±100 for the full control effect; nearly all actives have a fitted effect of over 50% in size; luciferase read-out
Cruzain inh noDet: qHTS Assay for Promiscuous and Specific Inhibitors of Cruzain (without detergent); purified cruzain, Z-FR-AMC fluorescence, no detergent; actives 2.3% (n = 200,000); Potency, µM, for the others: max response, negative = inhibition, most hits filed as inhibitors;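 note: plate controls were enzyme without inhibitor for no effect and buffer without enzyme for full effect; nearly all actives have a fitted effect of over 40% in size; top concentration of the series not given in the record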
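Detergent-free condition (0.00005% Triton X-100) in acetate buffer pH 5.5 with DTT. 1.5 nM enzyme and compound were pre-mixed 15 min, then 2 uM Z-FR-AMC substrate added; reaction progress from fluorescence change between first and third reads (60 s).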
Starred values were filed as active, the others as inactive; ? = inconclusive; / = no result given; [ ] = dose if it differs, or a comment. Unless noted, calls come from the whole dose curve; as a rule, active = well fitted curve in the direction sought with a large enough effect; inconclusive = small, poorly fitted or top-dose-only effect, or another doubt; inactive = no such curve, though single readings can be large; an effect the other way counts as inactive or inconclusive. Potency is the fitted concentration of half-maximal effect. Hits appear at their usual frequency; about 4.7% have a hit in one of these screens.

SMILES	Cruzain inh Det	StopGo reporter	Marburg entry inh	NS1 inh	RE007 growth inh	SARS PLpro yeast	LASV entry inh	Cruzain inh noDet
Cc1c(O)ccc2c3c(c(=O)oc12)CCCC3	-12.7%	-0.3%	-14.2%[46.1 µM]	-24.4%	-1.1%	-26.1%	-0.6%	24.0%
Nc1ccc2c(c1)C(=O)c1ccc(Cl)cc1-2	/	3.4%	-10.2%[46.1 µM]	/	-20.3%	/	-2.4%[46.1 µM]	/
O=C(COC(=O)c1ncc(Cl)c(Cl)c1Cl)NCc1cccs1	/	-14.5%	6.8%	/	4.8%	-0.4%	11.9%	/
COC(=O)c1ccc(/C=N/N2CCN(Cc3ccc(Cl)cc3)CC2)cc1	/	-24.6%	/	4.5%	12.8%	1.0%	/	/
O=C(NS(=O)(=O)c1ccc(Cl)cc1)c1ccccc1	/	41.3%[activator]	/	9.5%	11.8%	-5.3%	/	/
COc1ccccc1CNC(=O)c1cnc2sc(N3CCOCC3)nn2c1=O	-1.9%	-12.6%	/	/	/	/	15.6%[46.1 µM]	2.6%
COC(=O)/C(C#N)=C/c1c(N2CCN(c3cccc(Cl)c3)CC2)nc2c(C)cccn2c1=O	/	-19.6%	/	-0.2%	3.1%	-4.4%	/	/
COc1ccc(CN2C(=O)NC3(CCCc4ccccc43)C2=O)cc1F (configuration not stated)	/	?	0.6%[46.1 µM]	-5.4%	7.9%	0.2%	/	/
O=C(Nc1ccc([N+](=O)[O-])cc1)N1CCCCC1	/	10.7%	/	-2.9%	-4.8%	-1.0%	/	/
COC(=O)c1ccc(NC(=O)c2cc[n+](Cc3ccccc3)cc2)cc1	/	-7.0%	/	14.0%	-13.1%	-6.5%	/	/
COC(C[C@H](O)[C@H](C)[C@H](O)COCc1ccccc1)OC	/	-6.9%	/	-6.9%	-3.7%	0.6%	/	/
COc1cc(/C=N/NC(=O)CN(CCc2ccccc2)S(=O)(=O)c2ccc(NC(C)=O)cc2)cc(OC)c1OC	-4.6%	?	-9.7%	26.3%	-3.7%	-1.3%	18.4µM*	?
Cc1cc(S(N)(=O)=O)ccc1N=Cc1c(O)n(-c2ccccc2)c(=O)[nH]c1=O	/	4.4%	/	1.1%	-6.0%	2.3%	/	/
CNC(=O)c1c(NC(=O)c2ccc(S(=O)(=O)N(C)c3ccccc3)cc2)sc2c1CCN(C(C)C)C2	/	-25.4%	/	?	-12.1%	9.1%	/	/
CCn1cc(Br)c(C(=O)NC(C)c2ccccc2)n1 (configuration not stated)	5.2%	-1.6%	13.3%	-7.2%	3.9%	/	-28.9%	-4.1%
CCOC(=O)CCNC(=O)N1CCCC(N(C)CCc2ccccc2)C1 (configuration not stated)	/	7.3%	/	5.9%	-0.1%	-1.8%	/	/
COc1ccccc1NC(=O)C1CCN(C(=O)NCc2ccccc2)CC1	/	8.4%	-1.0%[46.1 µM]	13.0%	6.7%	0.3%	-22.6%[46.1 µM]	/
CC(C(=O)Nc1ccccc1-c1ccccc1)N1CCN(Cc2ccccc2)CC1 (configuration not stated)	/	?	?	-8.5%	-0.2%	-1.2%	?	/
CCN(CC)S(=O)(=O)c1cccc(-c2nn(-c3ccccc3)cc2/C=C(\C#N)C(=O)NCc2ccco2)c1	-11.2%	-1.4%	7.9%	9.8%	7.9%	5.7%	-8.2%	?
O=S(=O)(c1cccc2cccnc12)N1CCCCC1	/	4.1%	?	-3.9%	1.7%	1.3%	2.8%	/
COC(=O)[C@H](Cc1ccccc1)NC(=O)N1CCN(c2ccc(F)cc2)CC1	/	-16.7%	/	-42.9%	17.8%	-0.1%	/	/
O=C(NC1CCCCCC1)C1c2ccccc2C(=O)N1Cc1cccs1 (configuration not stated)	0.6%	7.5%	?	-11.2%	-8.4%	8.5%	?	0.8%
CCOC(=O)NC(NS(=O)(=O)c1ccccc1)(C(=O)OCC)C(F)(F)F (configuration not stated)	-0.4%	-13.4%	?	-10.8%	-9.6%	-2.0%	3.0%	5.7%
CC1CN(C(=O)CSc2nnc(-c3ccccc3)o2)CC(C)O1 (configuration not stated)	/	5.6%	/	0.2%	13.5%	2.5%	/	/
Cc1ccccc1Cn1c(=O)n(CCCCC(=O)NCCc2ccccc2)c(=O)c2ccccc21	-3.5%	-7.5%	-22.5%[46.1 µM]	/	/	/	-0.4%[46.1 µM]	0.0%
Cc1nn(CCS(=O)(=O)c2ccc(Cl)cc2)c(C)c1Br	/	-22.2%	?	-0.2%	3.8%	2.6%	0.9%	/
O=[N+]([O-])c1ccc(-c2nc(C(Cl)Cl)c3ccccc3n2)cc1	/	-11.9%	?	0.2%	-6.2%	0.3%	/	/
CC(C)(C)CC(=O)Nc1nn[nH]n1	2.0%	-16.7%	17.7%	7.9%	-1.5%	-11.8%	14.8%	13.1%
CC[N+]1(CC)CC2=Cc3ccccc3CC2C1 (configuration not stated)	/	9.7%	/	-10.3%	-13.1%	-0.8%	/	/
COc1cc(/C=N/NC(=O)c2cccc([N+](=O)[O-])c2)ccc1OCc1ccc(C)cc1	-3.3%	46.5%[activator]	-0.7%[46.1 µM]	5.1%	-1.1%	1.7%	8.8%	6.8%
COC(CNC(=O)c1ccc2c3c(onc13)-c1ccccc1C2=O)OC	/	?	?	-3.2%	?	-4.0%	?	/
OCC1(CC2CCCCO2)CCN(Cc2nc3ccccc3[nH]2)CC1 (configuration not stated)	/	22.8%	/	3.5%	-1.1%	0.3%	/	/
COc1ccccc1C(=O)NC(=O)OCCn1c(C)cnc1[N+](=O)[O-]	/	-13.0%	12.8%[46.1 µM]	/	-6.7%	-0.6%	11.9%[46.1 µM]	/
O=C(OCc1nnc(-c2ccccc2)o1)c1cccc(S(=O)(=O)N2CCOCC2)c1	/	4.8%	?	/	20.6%	-1.3%	7.9%	/
NS(=O)(=O)c1ccc(NC(=O)c2ccc(CNS(=O)(=O)c3cc(C(F)(F)F)ccc3Cl)cc2)cc1	/	-6.8%	/	-0.7%	-8.4%	2.0%	/	/
O=C(/C=C/c1ccc(N2CCOCC2)cc1)c1ccccc1	/	-22.1%	?	/	-21.0%	-4.4%	4.2%	/
Cc1ccc(-n2c(=O)cc(N3CCC(C)CC3)[nH]c2=O)cc1	3.5%	20.9%	25.2%	1.9%	14.3%	-1.0%	?	1.1%
O=C(Nc1cccc(F)c1)N1CCCC(CNS(=O)(=O)Cc2ccccc2)C1 (configuration not stated)	/	4.1%	25.7%[46.1 µM]	2.3%	-10.6%	1.0%	15.5%	/
CCOc1ccc(NC(=O)/C=C/c2ccccc2)c([N+](=O)[O-])c1	-4.0%	21.6%	-26.1%	-2.7%	-1.3%	2.1%	18.6%	-20.2%
COc1ccc(C(=O)Nc2ccc3oc(-c4ccc(F)cc4Cl)nc3c2)cc1	1.0%	?	/	/	/	/	29.6%[46.1 µM]	-8.0%
CCOC(=O)CSc1nc(C)c2ccc(C)cc2n1	-3.9%	34.7%[activator]	4.8%	2.0%	-10.3%	25.2%	0.9%	4.1%
CC(=O)c1cccc(NC(=O)/C(=C/c2ccco2)NC(=O)c2ccco2)c1	/	14.5%	-12.5%[46.1 µM]	9.4%	0.9%	1.4%	21.1%[46.1 µM]	/
COc1ccc(NC(=O)Nc2ccc(Br)cn2)cc1OC	-1.1%	14.0%	18.6%	-3.7%	17.6%	-6.4%	?	-1.4%
c1ccc(Oc2nc3ccccc3n3cccc23)cc1	-3.8%	-20.2%	0.2%	-6.3%	-24.8%	6.7%	-2.6%	-5.9%
COc1ccc(C2C(C(=O)c3ccc(C)o3)=C(O)C(=O)N2Cc2ccco2)cc1OC (configuration not stated)	/	-15.4%	/	13.0%	-1.6%	-1.3%	/	/
CCn1cc(C(=O)N[C@H](C(=O)NCCO)C(C)C)c(=O)c2cc3c(cc21)OCO3	/	-16.1%	6.1%[46.1 µM]	3.4%	1.2%	3.3%	8.9%[46.1 µM]	/
CC(=O)c1cccc(NC(=O)COC(=O)c2ccccn2)c1	/	13.9%	-28.0%[46.1 µM]	-3.7%	3.9%	0.4%	13.3%[46.1 µM]	/
Clc1ccccc1CNc1nc2ccccc2c2nc(-c3ccccc3)nn12	1.4%	-3.0%	?	/	/	/	/	-3.8%
O=C(CCCN1C(=O)/C(=C/c2ccccc2)SC1=S)Nc1ccc(C(=O)O)c(O)c1	/	26.7%	14.8%[46.1 µM]	3.1%	-15.6%	0.6%	-18.8%	/
COc1ccc(Cn2c(=O)n(Cc3ccco3)c(=N)c3c4c(sc32)COC(C)(C)C4)cc1	-2.3%	-22.9%	-20.3%	-56.4%	7.2%	-7.0%	?	-8.0%
New compounds follow:
SMILES	Cruzain inh Det	StopGo reporter	Marburg entry inh	NS1 inh	RE007 growth inh	SARS PLpro yeast	LASV entry inh	Cruzain inh noDet
COc1ccc(OC)c(C(=O)/C=C/c2ccccc2C(F)(F)F)c1	-8.8%	20µM*	?	-22.1%	-13.6%	-9.7%	?	-1.0%
COc1ccc(Nc2nnc(SCC3CCCO3)s2)cc1 (configuration not stated)	/	78.2%[activator]	-6.7%	-4.3%	-13.9%	-3.9%	?	/
COc1ccc(C2=NN(C(=O)CSc3nnc(-c4ccccc4F)o3)C(c3ccco3)C2)cc1 (configuration not stated)	-7.1%	0.0%	-1.8%	6.8%	-14.6%	-0.3%	?	?
CCCN(CCC)C(=O)CCSCCC(=O)N(CCC)CCC	-1.7%	-7.2%	-12.8%	-2.9%	-4.5%	12.5%	-0.8%	24.3%
O=S(=O)(c1ccc(Cl)cc1)N1CCCC1c1nc(-c2cccc(Cl)c2)no1 (configuration not stated)	-0.2%	-28.8%	?	-0.9%	-2.0%	24.3%	-1.5%	-2.8%

Screening results from PubChem BioAssay.
